Assay outcomes as filed in PubChem BioAssay.
H5N1 CPE: MDCK cell protection from H5N1 avian flu; cytopathic effect, luminescence, 72 h; active compounds read high; no value below 0 was filed and about half of the inactive calls have no number; reference of the scale not given here; inhibition, % at 50 µM; 96,000 tested, 0.07% active; in the data active = inhibition above about 25%
Numbers without * were called inactive; i = inactive. Some of the compounds tested (hit frequency here may not be typical).

Molecule | H5N1 CPE
COCCOC(=O)C1=C(C)Nc2ncnn2C1c1ccccc1 (stereo not drawn) | 0.5
CS(=O)(=O)NCCSCc1ccco1 | 0.1
COc1ccc(N2CCN(CC(=O)Nc3nc4c(s3)CC(C)CC4)CC2)cc1 (stereo not drawn) | 0.4
CC1CCN(Cc2ccc(-c3nn[nH]n3)cc2)CC1 | 0.1
Cc1cc2oc(=O)cc(CN3CCOCC3)c2cc1C | 0.9
O=C1OC(Nc2nc3ccccc3s2)c2ccccc21 (stereo not drawn) | 0.3
Cn1c(NC(=O)c2ccc(Br)o2)cc(=O)n(C)c1=O | 1.2
Cc1ccc(C(=O)NCCNc2ccc(Cl)cc2[N+](=O)[O-])o1 | i
COc1nc(NCCc2ccc(OC)c(OC)c2)nc(NC(C)(C)CO)n1 | i
COC(=O)C1=C(C)N(CC2CCCO2)C(=O)/C1=C\c1ccc(O)cc1 (stereo not drawn) | 0.4
C#CC[N+]1(CC#Cc2ccccc2)CCCC1 | i
CCOc1ccc2[nH]c(=O)c(CN(CCc3ccccc3)C(=O)c3cnccn3)cc2c1 | 0.1
Cc1ccc2nc3c(cc(C(N)=S)c(=N)n3CCCOC(C)C)c(=O)n2c1 | 1.9
Cn1c(=O)c2c(ncn2CC(=O)NC(C)(C)C)n(C)c1=O | i
COC(=O)c1c(C(=O)OC)c(-c2ccccc2)n2c1CS(=O)C2 (stereo not drawn) | 0.3

Compounds from the list above with an aryl methoxy group, in the order listed:
Molecule | H5N1 CPE
COc1ccc(N2CCN(CC(=O)Nc3nc4c(s3)CC(C)CC4)CC2)cc1 (stereo not drawn) | 0.4
COc1nc(NCCc2ccc(OC)c(OC)c2)nc(NC(C)(C)CO)n1 | i

(next part)
Molecule | H5N1 CPE
COc1ccc(OC)c(N)c1 | i
CN(c1cccc(Cl)c1)S(=O)(=O)c1cccc(C(=O)NC2=NCCS2)c1 | i
COc1cccc(CN(CC(=O)NC2CCCC2)C(=O)CCC(=O)Nc2cc(C)on2)c1 | 2.0
CN(C)C(=O)C12CCC(C)(c3nc4ccccc4nc31)C2(C)C (stereo not drawn) | 3.4
CCOc1cc(N2CCOCC2)c(OCC)cc1NC(=O)C1CCCC1 | i
COc1ccc(CCNC(=O)COc2nsnc2N2CCOCC2)cc1OC | i
O=c1cc(-c2ccccc2)c2c([nH]1)CCCC2 | 0.1
O=C1CSC(c2ccncc2)N1Cc1ccco1 (stereo not drawn) | 2.8
CS(=O)(=O)NCCCNc1c(Cl)cccc1[N+](=O)[O-] | 0.2
Cc1cccc(C)c1NC(=O)CSc1nnnn1C | 1.1
O=C(O)c1ccccc1S(=O)(=O)Cc1ccccc1 | i
Cc1cc(-c2cc(N)n(-c3ccccc3)n2)c(C)n1C1CCCC1 | 1.4
O=C(c1nn(-c2ccccc2)c(=O)c2ccccc12)N1CCN(c2ccccn2)CC1 | 1.0
COc1cc(C(=O)OCC(=O)N2CCCC2)cc(OC)c1OC | 0.7
COc1ccc2[nH]c(=O)c(CN(Cc3ccco3)C(c3nnnn3Cc3ccccc3)C(C)C)cc2c1 (stereo not drawn) | 2.6

The closing 3 records of the part above come first, to join the parts.
Molecule | H5N1 CPE
O=C(c1nn(-c2ccccc2)c(=O)c2ccccc12)N1CCN(c2ccccn2)CC1 | 1.0
COc1cc(C(=O)OCC(=O)N2CCCC2)cc(OC)c1OC | 0.7
COc1ccc2[nH]c(=O)c(CN(Cc3ccco3)C(c3nnnn3Cc3ccccc3)C(C)C)cc2c1 (stereo not drawn) | 2.6
CCCn1nnnc1SCC(=O)c1ccc2c(c1)OCCO2 | i
COc1ccc2c(c1)CCc1c(C(=O)Nc3ccc(OC)c(OC)c3)noc1-2 | i
CCOC(=O)N1CCN(C(=O)CS(=O)(=O)c2cn(Cc3ccccc3Cl)c3ccccc23)CC1 | 0.7
CCCCCn1nc(-c2ccccc2)c2nc3ccccc3nc21 | 0.2
O=C(CC1Nc2ccccc2NC1=O)NCCc1ccccc1 (stereo not drawn) | 0.2
CCOc1ccc(Nc2cc(C)nc(N3CCOCC3)n2)cc1 | 3.0
Cc1cc(C)c2c(c1)OC(O)(C(F)F)CC2=O (stereo not drawn) | i
CC(C)(C)c1ccc(C(=O)C=[N+]=[N-])cc1 | 0.0
CN=C1SC(CC(=O)NCCc2ccc(OC)c(OC)c2)C(=O)N1C (stereo not drawn) | i
COC(=O)C(F)(Sc1c(C)n(C)n(-c2ccccc2)c1=O)C(F)(F)F (stereo not drawn) | 0.2
CSCCC(NC(C)=O)C(=O)Oc1ccc2c3c(c(=O)oc2c1)CCCC3 (stereo not drawn) | i
CSCSC1=C(C#N)C(c2ccccc2Cl)C(C(C)=O)=C(C)N1 (stereo not drawn) | 0.4
COc1ccc(NC(=O)CCNC(C)=O)cc1NS(=O)(=O)c1ccc(F)cc1 | i
CC(=O)Nc1cccc(OCC(=O)Nc2ccc(F)cc2)c1 | i
COCCn1c(SCC(=O)Nc2ccc(S(N)(=O)=O)cc2)nc2ccccc21 | i
Cn1nc(-c2ccccc2)c(C(=O)Nc2ccc(Cl)cc2)c1Cl | 0.7
CC(NC(=O)c1ccco1)C1COc2ccccc2O1 (stereo not drawn) | i
CCn1cc(C2N3CC4(C)CN2CC(C)(C3)C4=O)c2ccccc21 (stereo not drawn) | i
Cc1ccc(Nc2nc3c([nH]2)c(=O)n(C)c(=O)n3C)cc1 | 7.3
Clc1ccccc1CSc1nnc(-c2ccncc2)o1 | 3.1
CCCn1cnc2cc(NCc3ccccn3)ccc21 | i
c1coc(CNC2C3CC4CC(C3)CC2C4)c1 (stereo not drawn) | 1.0
Cc1nnc(NC(=O)C2CCCN(c3ncccn3)C2)s1 (stereo not drawn) | 0.3
Cc1cccc(OCC(=O)Nc2sc3c(c2C#N)CCC3)c1 | i
O=C(COc1cccc2ccccc12)N1CCN(c2ccccc2)CC1 | i
O=C(O)C1C2CCC(O2)C1C(=O)NCc1ccncc1 (stereo not drawn) | i
CC(=O)c1ccc(NC(=O)CSc2nnc(Cn3c(=O)sc4ccccc43)n2C)cc1 | i
CC(=O)NCCC(=O)Nc1sc2c(c1-c1nc3ccccc3[nH]1)CCCC2 | i
Cn1cccc1C(=O)NC(=O)COC(=O)C12CC3CC(CC(O)(C3)C1)C2 | i
COc1ccc2[nH]cc(C(=O)CN3CCCC(C)C3)c2c1 (stereo not drawn) | i
CC(C)[C@H](NS(=O)(=O)c1ccccc1)C(=O)OCC(=O)NC(=O)c1cccn1C | i
COc1ccc(NC(=O)CCN2CCCC(C)C2)cc1 (stereo not drawn) | i
CCCOc1ccc(-c2nnn(CC(=O)N3CCC(C)CC3)n2)cc1 | i
CCOC(=O)c1c(-c2ccco2)csc1NC(=O)CSc1nnc(N)s1 | 0.5
COc1cccc(C2C(C(C)=O)=C(O)C(=O)N2CCc2c[nH]c3ccccc23)c1 (stereo not drawn) | i
CNC(=O)c1ccc(OC2CSC2)cc1 | i
CCn1ncc(/C=C/C(=O)NCc2cnn(C)c2C)c1C | i
C#CC(=O)N(c1ccc(OC)c(OC)c1)C(C(=O)NC1CCCC1)c1cccs1 (stereo not drawn) | i
Cc1cc(C)c(-c2cc(C(=O)Nc3c(C)n(C)n(-c4ccccc4)c3=O)[nH]n2)c(O)c1 | 0.3
Cc1c(Cl)cccc1NC(=O)CCCN1C(=O)CCC1=O | 1.1
O=C(Cn1c(-c2cncs2)nc2ccccc21)NC1CCCC1 | i
NC(=O)c1ncc(C(F)(F)F)cc1Oc1ccc(F)cc1 | i
COc1ccccc1NC(=O)Cc1csc(NC(=S)Nc2ccccc2)n1 | i
COCCNC(=O)CSc1nc2ccccc2c(=O)n1-c1cccc(OC)c1 | 0.2
Cc1ccc(-c2nn(-c3cc(Cl)ccc3[N+](=O)[O-])c(=O)c3ccccc23)cc1C | i
CCCCCOC(=O)Cc1c(O)c2ccccc2n(C)c1=O | i
CCCCc1ccc(-c2nc(NC(=O)C3C4CCC(O4)C3C(=O)O)sc2C)cc1 (stereo not drawn) | i
COc1ccc(Cl)cc1NC(=O)COc1cccc(-n2cnnn2)c1 | 1.4
CCOP(=O)(OCC)C(NC(=O)c1ccc(Cl)cc1)=C(Cl)Cl | 0.2
CCOc1ccc2[nH]c(=O)c(CN(Cc3ccc(F)cc3)C(=O)N3CCCC3)cc2c1 | i
Cn1c(=O)n(CCc2ccccc2)c(=O)c2c1nc1n2CCCN1Cc1ccccc1 | i
CCN(c1cccc(C)c1)S(=O)(=O)c1cccc2nsnc12 | 0.9
Cc1ccc(-c2nnc(SCC(=O)OC(C)C)n2N)cc1 | 0.3
O=C(/C=C1\NC2(CCCC2)Cc2ccccc21)N1CCOCC1 | i
COc1cc(Cl)c(C)cc1NC(=O)CSc1nnc(-c2ccco2)n1CC(C)C | i
COc1ccc(NC2=NCC(=O)N2c2ccccc2)c(OC)c1 | i
CC(C)n1c(/N=C/c2c[nH]c3ccccc23)nc2ccccc21 | i
COc1ccccc1CN=Cc1[nH]c2ccc(Br)c(Cl)c2c1O | i
CCc1cc2c(=O)[nH]c(Cc3ccc(Cl)cc3)nc2s1 | i
COc1ccc(NS(=O)(=O)c2ccc(OC)c(N(C)S(=O)(=O)c3ccc(Cl)cc3)c2)cc1 | 25.8*

Next entries follow:
Molecule | H5N1 CPE
CCCC1CCC(c2nc(-c3cccnc3)no2)CC1 (stereo not drawn) | i
CCOc1cc(N2CCOCC2)c(OCC)cc1NC(=O)c1cc(-c2ccco2)nc2ccccc12 | i
CC(=O)CSc1nc2ccc(Nc3nc(N4CCOCC4)nc(N4CCOCC4)n3)cc2s1 | 1.2
COc1cc(CNc2ccc3c(c2)CCC3)cc(OC)c1O | 0.0
CCCCN1C(=O)C(C2c3ccccc3C(=O)N2Cc2ccccc2)C(=O)NC1=S (stereo not drawn) | 0.1
C=CCOc1ccc2ccccc2c1CNCCCN1CCOCC1 | 3.6
O=C(Cn1c(NCCO)nc2ccccc21)NCCc1ccccc1 | i
CCOC(=O)c1ccc(NC(=O)C2(c3ccc(OC)cc3)CCOCC2)cc1 | 3.0
c1ccc2c(NC3CCCC3)nnc(NC3CCCC3)c2c1 | 0.9
O=C(CCCc1nc2ccccc2s1)Nc1nccs1 | i
CCOC(=O)c1nnn(CC(=O)N2N=C(c3ccc(Cl)cc3)CC2c2ccc(OC)cc2)c1C(=O)OCC (stereo not drawn) | i
O=S(=O)(/N=C(\Sc1ccccc1)c1ccccc1)c1ccc(Cl)cc1 | 1.6
Cc1cccc(OCC(=O)O/N=C(\N)Cc2cccs2)c1 | i
COc1ccc(/C=N/n2c(N)nc3ccccc32)cc1OC | i
Cn1c(SCc2ccon2)nc2ccccc2c1=O | 1.8
CCOC(=O)c1cccc(NC(=O)C(C)N2C(=O)c3ccccc3C2=O)c1 (stereo not drawn) | 0.2
CCOc1ccc(-c2nc(CSc3nnc(N)s3)cs2)cc1 | 0.8
CCN1CC2=C(OC(N)=C(C#N)C2c2ccccc2)/C(=C\c2ccccc2)C1 (stereo not drawn) | 2.1
CCN(CC)CCn1nc(C)nc1-c1ccccc1O | 0.2
O=C(CCc1nc(-c2ccccc2)no1)NCCc1ccccc1 | 0.8
O=C(CN(Cc1ccccc1)C(=O)c1cc2c(s1)CCC2)NCc1cccs1 | i
Nc1c(C(=O)Nc2ccc(Br)cc2)sc2nc(-c3ccco3)ccc12 | i
COCCn1cc(C(=S)N2CCOCC2)c2ccccc21 | i
O=C(CCCOc1ccccc1)Nc1ccncc1 | 1.6
O=C(NCCc1ccncc1)C(F)(F)F | 2.0
O=C(CCS(=O)(=O)c1cccc2nonc12)N1CCN(c2ccc(F)cc2)CC1 | 0.1
Cc1cc(C)nc(N/N=C/c2ccco2)n1 | 4.4
CC(c1ccccc1)N1CCn2c(nc3cc(NC(=O)NC4CCCCC4)ccc32)C1 (stereo not drawn) | i
CCOC(=O)N1CCC(NC(=O)Cn2cccc2C(=O)c2ccccc2C)CC1 | i
CCn1c2ccccc2c2cc(/C=N/n3cn[nH]c3=S)ccc21 | 0.1

For convenience, three of the compounds above.
Molecule | H5N1 CPE
O=C(CN(Cc1ccccc1)C(=O)c1cc2c(s1)CCC2)NCc1cccs1 | i
Nc1c(C(=O)Nc2ccc(Br)cc2)sc2nc(-c3ccco3)ccc12 | i
COCCn1cc(C(=S)N2CCOCC2)c2ccccc21 | i

New compounds follow.
Molecule | H5N1 CPE
CCCc1nn(-c2ccccc2)c2c1C(c1cccs1)C(C#N)=C(N)O2 (stereo not drawn) | i
O=C1CC(c2ccc(Cl)cc2)n2nc(NS(=O)(=O)c3ccc(F)cc3)nc2N1 (stereo not drawn) | 0.8
COc1cc(NC(=O)CSc2nc(C)cs2)cc(OC)c1 | i
CC(C)(C)C(=O)Nc1cccc(-c2nc3ccccc3[nH]2)c1 | i
O=C(COc1ccc(Cl)cc1)N1CCCCC1 | 0.4
O=c1c2ccccc2nc(-c2ccc(Cl)cc2Cl)n1CCCn1ccnc1 | 0.1
COc1ccc(C)cc1N(CC(=O)NC1CCCC1)C(=O)CCC(=O)Nc1cc(C)on1 | 0.9
O=C(NCCc1ccc(O)cc1)c1ccc(Cl)cc1 | 1.1
CCCCn1c(=O)n(CC(O)c2ccccc2)c(=O)c2c1ncn2C1CCCC1 (stereo not drawn) | i
CCCCc1ccc(NC(=O)C2CCN(S(C)(=O)=O)CC2)cc1 | 0.7
O=C(CN1CCN(CCO)CC1)Nc1ccc(Cl)cc1C(=O)c1ccccc1 | i
O=c1cc(N2CCN(Cc3ccccc3)CC2)c(-c2ccccc2)n[nH]1 | 0.2
Cc1c(C(=O)NCC2CCCO2)sc2nc(-c3ccc(F)cc3)cn12 (stereo not drawn) | i
O=C(Nc1nc(-c2cccs2)cs1)c1ccc(S(=O)(=O)N2CCCCC2)cc1 | i
C=CCNC(=O)C(=O)NN=C1CCN(C)CC1 | i
O=C(NCc1cccnc1)C1c2ccccc2C(=O)N1Cc1ccccc1 (stereo not drawn) | 1.0
COc1ccc(OC)c(NS(=O)(=O)c2ccc(Cl)s2)c1 | i
